# Assay outcomes deposited in PubChem by Fisher Drug Discovery Resource Center.
# NPYLR7 ag: mosquito NPYLR7 agonism; HEK293T NPYLR7/Galpha15, GCaMP6s calcium fluorescence; activation, % at 10 µM; hit rate 0.15% among 270,000; AID 1259423; in the data active = activation above about 40%;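 note: 0% = vehicle and 100% = reference agonist at the receptor; some compounds past the cut are filed as inactive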
# NPYLR7 ag max-min: also measured in NPYLR7 ag; calls as there; activation, %; measured here: Max-Min RFU normalised activation; some inactives read as strong as hits;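 span of the calcium signal over five minutes; 0% = vehicle and 100% = native peptide agonist; compound fluorescence can raise it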
# * marks the source's active call; other numbers are inactive results; & = joins results of further samples. Only part of the results is shown, so the mix of outcomes need not match the whole.
no. | mol | NPYLR7 ag | NPYLR7 ag max-min
1 | O=C(c1ccc(N2CCC(NCc3cnc4ccccn34)CC2)cc1)N1CCc2ccccc2C1 | 4 | 0
2 | N#CCNC(=O)CCC(Cc1ccc(Cl)cc1)C(=O)NCC#N (configuration not stated) | 7 | 5
3 | CC1(C(=O)NS(=O)(=O)Cc2ccccc2C(F)(F)F)CCN1C(=O)Cc1ccsc1 (configuration not stated) | 2 | 0
4 | CCN(Cc1ccncc1)C1CCCN(C(=O)c2ccn(C(C)(C)C)c2)C1 (configuration not stated) | -8 | -11
5 | CN(Cc1ccccc1)c1nc2c(c(=O)n(C)c(=O)n2C)n1CCSc1ncccn1 | -8 | 5
6 | COC(=O)c1cccc(OCc2nn[nH]n2)c1 | -6 | -11
7 | CCC(=O)Oc1ccc2c(c1)O/C(=C\c1ccco1)C2=O | -1 | -4
8 | COC(=O)c1ccc(OC)c(CN2N=NC3C(=O)N(c4ccc(C)c(C)c4)C(=O)C32)c1 (configuration not stated) | -9 | -9
9 | O=C(NCc1ccc(Cn2ccnc2)cc1)C1=CCCCO1 | 2 | 2
10 | CC1CCN(Cc2nnnn2CCCC(=O)NCC2COc3ccccc3O2)CC1 (configuration not stated) | 8 | 2
11 | CC(C)c1n[nH]c(=S)c2c1cnn2-c1ccc(F)cc1 | -3 | -6
12 | CN(C)c1cc(-c2noc(Cc3ccccc3Cl)n2)ccn1 | -5 | -5
13 | CN(C)C1CCCN(C(=O)c2cccc(Oc3ccccc3)c2)CC1 (configuration not stated) | 5 | 1
14 | O=S1(=O)CCC(n2nc(-c3ccco3)cc2NS(=O)(=O)c2ccccc2)C1 (configuration not stated) | -1 | -2
15 | CC1=C(C(=O)OCC(C)C)C(c2ccc(Cl)cc2)NC(=O)N1C (configuration not stated) | 0 | -3
16 | CC(=O)N(CCCN(C)C)c1nc2ccc(C)cc2s1 | 12 | 12
17 | CCOC(=O)c1nc2cc(Cl)c(Cl)cc2nc1N1CCCN(C(=O)C(C)Cl)CC1 (configuration not stated) | 16 | 7
18 | O=c1c2c3c(sc2[nH]c(=S)n1Cc1ccccc1)CCC3 | -7 | -10
19 | O=C(c1cn(CCCc2ccccc2)nn1)N1CCN(Cc2cccc(Cl)c2)CC1 | 4 | 2
20 | CCOc1ccccc1NC(=O)N1CCSC1c1ccc(C(C)(C)C)cc1 (configuration not stated) | -1 | 5
21 | COc1ccc(-c2onc(C)c2C(=O)N[C@H](C)c2cccc(OC)c2)cc1 | -2 | -1
22 | O=S(=O)(NCCc1ccc(Cl)cc1)c1ccc(Cl)cc1 | 20 | 14
23 | CC(C(=O)NCc1cccnc1)n1c(=O)n(-c2ccc(F)cc2)c(=O)c2ccc(Cl)cc21 (configuration not stated) | 9 | 16
24 | O=C(Nc1ccccc1-c1nc2ccccc2o1)c1ccccc1F | 14 | 17
25 | CN1CCN(CC(NC(=O)NCc2ccon2)c2ccccc2)CC1 (configuration not stated) | -2 | 22
26 | COc1ccc(Cl)cc1S(=O)(=O)N1CCN(CCO)CC1 | -7 | -8
27 | COC(=O)CN(C)Cc1cccc(C(=O)Nc2c(C)cnn2C)c1 | 1 | -2
28 | Cc1ccccc1-n1c(-c2ccc(Cl)cc2)cc(C(=O)N2CCN(C(=O)C(Cl)Cl)CC2)c1C | -2 | 8
29 | CN1C[C@H](C(=O)N[C@]2(C)O[C@@]3(O)[C@@H]4CCCN4C(=O)[C@H](Cc4ccccc4)N3C2=O)C[C@@H]2c3cccc4[nH]cc(c34)C[C@H]21 | -8&-2&1 | -15&-3&-32
30 | O=c1cccnn1CCNS(=O)(=O)c1ccc(Cl)c(Cl)c1 | 0 | 0
31 | C#CCNS(=O)(=O)c1ccc(C)cc1Cl | 8 | 6
32 | COc1ccc(-c2cc3c(=O)n(CC(=O)Nc4cccc(SC)c4)ccn3n2)cc1 | 1 | -4
33 | Cc1ccccc1Oc1cc(N2CCN(C(=O)N(C)C)C(C)C2)ncn1 (configuration not stated) | -9 | -5
34 | C=CCc1ccccc1OCC(O)Cn1c(=O)c(C#N)c2n(c1=O)CCCCC2 (configuration not stated) | 0 | 0
35 | OCCCCNc1ncnc2sc3c(c12)CCCC3 | -2 | -4
36 | S=C(Nc1ccc2c(c1)OCCO2)Nc1cccc2c1CCCC2 | -1 | -4
37 | Cn1cc(-c2noc(C3CCCCCC3)n2)cn1 | 0 | -5
38 | O=C(NCc1ccc(OC(F)(F)F)cc1)c1cncn1-c1ccc(-c2cc(C(F)(F)F)cc(C(F)(F)F)c2)cc1 | 10 | 7
39 | O=C(c1cc(COc2ccccc2)[nH]n1)N(Cc1ccsc1)C1CC1 | 13 | 9
40 | CC(CC(F)(F)F)NCCc1csc(-c2cccnc2)n1 (configuration not stated) | 8 | 5
41 | C=CCn1c(=O)c(C(=O)OCC)c(O)c2ccccc21 | -21 | -24
42 | CCN(CC)S(=O)(=O)c1ccc2c(c1)nc(SCc1ccc(OC)c(C)c1)n2Cc1ccco1 | 27 | 14
43 | O=C(C[n+]1ccccc1-c1ccccn1)c1ccc2c(c1)OCCO2 | 1 | 0
44 | CS(=O)(=O)C(C#N)=Cc1cccc(C(F)(F)F)c1 | 5 | 1
45 | O=C(CCN(c1nc(C2CC2)nc2cc(Cl)ccc12)C1CC1)NCc1ccccc1 | 5 | 8
46 | COC(=O)c1ccc(/C=N\NC(=O)CSc2nnc(-c3ccc(Cl)cc3)n2-c2ccccc2)cc1 | -3 | 3
47 | COc1cccc(-c2cc(-c3ccc(C(=O)N[C@H]4CCC[C@@H]4OCc4ccccc4)cc3)[nH]n2)c1 | 25 | 10
48 | Cc1cn2c3c(=O)n(CC(C)C)c(=O)n(C)c3nc2n1C(C)C | 1 | 9
49 | COc1ccc(C2CC(c3cc(C)ccc3C)=NN2C(=O)CN2CCc3ccccc3C2)cc1 (configuration not stated) | 23 | 14
50 | C#CC1(NC(=O)C2CCN(CCOC)C2)CCCCC1 (configuration not stated) | 0 | -1
51 | CC1(C)OC2C(CO)OC(NC(=O)CNC(=O)c3ccccc3)C2O1 (configuration not stated) | -3 | -6
52 | Cc1ccc(C(=O)N(CC(=O)Nc2nc(CC(=O)NCc3cccc(C(F)(F)F)c3)cs2)C(C)C)cc1 | 17 | 18
53 | CN(C)c1cc(C(F)(F)F)nc(-n2cnnc2S(C)=O)n1 (configuration not stated) | -2 | 32
54 | Cn1c(SCC(=O)Nc2ccccc2)nnc1-c1ccc(=O)n(C)c1 | 2 | 0
55 | Cc1csc(NC(=O)CCc2nc(Cc3ccccc3)no2)n1 | 10 | 9
56 | CCCCn1ncc(C)c1NC(=O)c1ccc(CN(C)C)cc1 | 7 | 5
57 | Cc1cc(C)cc(C(=O)N(C)CC(=O)N2CCCC2)c1 | 6 | 3
58 | NC(=O)CCn1cc(CN2CCCCC2c2cccnc2)c2ccccc21 (configuration not stated) | 3 | 15
59 | Cc1[nH]c(=O)c(C(=O)N2CCC3(CN(C)C(=O)O3)C2)c(C)c1Cl (configuration not stated) | 5 | 5
60 | CC1(C(=O)Nc2cccc(NS(C)(=O)=O)c2)CCN1Cc1ccccc1Cl (configuration not stated) | 9 | 0

# Next results follow:
no. | mol | NPYLR7 ag | NPYLR7 ag max-min
61 | O=S(=O)(c1cccc(F)c1)N1CCN(c2nccs2)CC1 | 17 | 10
62 | O=C(Nc1cnc2c(O)cccn2c1=O)c1ccc(F)cc1 | 0 | 0
63 | COCCn1c(SCC(=O)Nc2cccc(Cl)c2)nc2c([nH]c3ccccc32)c1=O | 1 | 1
64 | CCOC(=O)C1=C(C)N=c2s/c(=C\c3cccnc3)c(=O)n2C1c1cccc(OC)c1 (configuration not stated) | 6 | 2
65 | CS(=O)(=O)c1ccc(NS(=O)(=O)c2ccc(F)c(F)c2)cc1 | 6 | 7
66 | C=CCn1c(SCc2ccc(C(=O)Nc3ccc4c(c3)OCO4)cc2)nnc1-c1ccc(C)cc1 | 12 | 13
67 | COc1ccc2oc(=O)c(-c3nnc(-c4ccccc4)o3)cc2c1 | -2 | -7
68 | O=C(NCC1Cc2cccc(F)c2O1)C1CC1 (configuration not stated) | 19 | 11
69 | O=C(c1c(F)cccc1C(F)(F)F)N1CCC(CCc2ccc(-c3ccccc3)cc2)CC1 | 4 | 9
70 | N#Cc1ccc(N2CCCN(C(=O)NC3CC3c3cccc(F)c3)CC2)cc1 (configuration not stated) | 2 | 0
71 | O=C(NCC1CCCO1)C1CCCN(S(=O)(=O)N2CCCCC2)C1 (configuration not stated) | 0 | -4
72 | CC1(C(=O)NC2CC2)CCN1Cc1ccc2ccccc2c1 (configuration not stated) | -4 | -5
73 | Cc1cc(O)cc(=O)n1CC(=O)N1CCCCC1c1cc2ccccc2[nH]1 (configuration not stated) | 4 | -2
74 | O=S(=O)(c1ccc(Cl)cc1)N1CCN(c2nc(-c3cccc(Br)c3)nc3ccccc23)CC1 | 7 | 18
75 | CC1=CC[C@@H]2CN(C(=O)CCS(=O)(=O)c3ccccc3)C[C@@H]2C1 | -2 | -3
76 | CCN1CCN(CC(=O)N2CCC3(CCCN(CCC4CCCCC4)C3)C2)CC1 (configuration not stated) | 13 | 16
77 | O=C(COCc1ccccc1)N1CCN(C(C(=O)N2CCCC2)C2CCCC2)CC1 (configuration not stated) | -8 | -5
78 | CCc1ncc2c(n1)CN(C(=O)c1ccc(N3CCCC3=O)cc1)C2 | 4 | -4
79 | CCCCc1cn(CC2CCN(C(=O)c3ccc4cc[nH]c4c3)CC2)nn1 | 33 | 27
80 | COc1ccc(C(=O)N2CCN(C(C(=O)NCCc3ccccc3OC)C3CCCC3)CC2)cc1 (configuration not stated) | -21 | -14
81 | COc1ccc(C)c(NC(=O)c2ccc3nc(-c4ccc(C#N)cc4)[nH]c3c2)c1 | 13 | 7
82 | CCCCc1nc2cc(C(=O)NCc3nc(C)c4c(n3)CCCC4)ccc2o1 | 20 | 11
83 | CC(c1nc(-c2ccc(Cl)cc2)no1)N1CCC(CN2CCCCC2)C1 (configuration not stated) | 13 | 9
84 | COC(=NCC1CC1)NC(=O)c1ccc2c(c1)OCO2 | 12 | 17
85 | CC1Cc2ccccc2N1CCC(=O)Nc1ccc(F)cc1 (configuration not stated) | 2 | 1
86 | COc1ccc(-c2nc(CSCCc3ccccc3)cs2)cc1OC | 4 | 6
87 | Nc1ccc(Br)cc1C(NCC(=O)O)c1ccccc1 (configuration not stated) | -1 | -3
88 | Cc1ccc(COc2ccc3c(C4CC4)noc3n2)cc1 | 2 | -2
89 | Cc1nc(SCCNC(=O)c2cc(C3CC3)[nH]n2)n[nH]1 | 3 | 1
90 | CCn1nc(C(=O)O)cc1-c1ccc(F)c(F)c1 | 23 | 15
91 | O=c1ccc(-c2nc(-c3cccc(F)c3)no2)cn1Cc1cc(=O)n2ccccc2n1 | 10 | 5
92 | CC(C1CCN(c2nc(C(C)(C)C)nc3c2cnn3C)CC1)N1CCOCC1 (configuration not stated) | 6 | 3
93 | COc1cccc(C2CC(c3ccc(Br)cc3)=NN2S(C)(=O)=O)c1OC (configuration not stated) | -4 | -6
94 | O=C(/C=C\c1ccco1)Nc1c2c(nn1-c1ccc([N+](=O)[O-])cc1)CSC2 | 1 | -1
95 | CCC(C)(C)NC(=O)c1ccc(-n2cncn2)cc1 | 0 | 0
96 | O=C(CNc1cccc2ccccc12)N1CCOCC1 | 7 | 7
97 | CC(C)(Oc1ccc(CCNC(=O)c2ccc(Cl)cc2)cc1)C(=O)NCCc1nc2ccccc2[nH]1 | -7 | -9
98 | CCN(CC)c1nc2c(-c3cccc(C(F)(F)F)c3)nnn2c2ccccc12 | 2 | 1
99 | COc1ccc(CCN(C)Cc2csc(-c3ccc(Cl)cc3)n2)cc1OC | 18 | 25
100 | COc1ccc(CC(=O)NCCc2cc3ccc(C)cc3[nH]c2=O)cc1OC | 1 | 25
101 | O=c1[nH]c2ccccc2c(-c2ccccc2)c1-n1cc(S(=O)(=O)N2CCCC2)ccc1=O | 0 | -3
102 | CCNC(=O)c1cnn(-c2cccc(Cl)c2)c1CC | 10 | 18
103 | COc1cc(=O)n(-c2ccccc2)nc1C(=O)N1CCc2ccccc21 | 2 | 0
104 | C(=Nc1nc2ccccc2nc1N1CCOCC1)N1CCN(C(c2ccccc2)c2ccccc2)CC1 | -4 | -7
105 | O=C(CCc1ccccc1)N(CCCN1CCOCC1)c1nc2c(F)cc(F)cc2s1 | -3 | -11
106 | CCn1c(C)cc(O)c(C(c2ccc(Cl)cc2)N2CCN(C)CC2)c1=O (configuration not stated) | 12 | 4
107 | O=C1CC(N2CCCc3ccccc32)C(=O)N1c1ccccc1Cl (configuration not stated) | -5 | -8
108 | O=C(Nc1nnc(SCc2ccccc2F)s1)c1ccc([N+](=O)[O-])cc1 | 8 | 8
109 | CC(=O)N1CCCC(C(=O)NC2CCN(Cc3ccccc3)C2=O)C1 (configuration not stated) | 1 | -3
110 | CCc1cc(C(=O)N2CCC(CCC(=O)NCc3cccc(C(F)(F)F)c3)CC2)n(C)n1 | 10 | 4
111 | COc1ccc(-c2nc(NCCc3ccccc3)c3ccc(Cl)cc3n2)cc1 | 8 | 15
112 | C=CCn1c(SCC(=O)NCc2ccccc2)nnc1-c1ccccc1F | -8 | -2
113 | CS(=O)(=O)c1ccc(NS(=O)(=O)c2ccccc2Br)cc1 | -2 | -2
114 | COc1ccc(CC(=O)N2CCCN(c3nc(Cc4ccc(C)cc4)nc4c3c(C)nn4-c3ccc(F)cc3)CC2)cc1 | 6 | 6
115 | O=S(=O)(NCCSc1ccccn1)NCc1ccccc1 | 10 | 10
116 | COc1ccc(CN(CCc2c[nH]c3ccccc23)Cc2nc(C(=O)NCc3ccco3)co2)c(OC)c1 | 3 | 10
117 | COc1ccc(F)c(F)c1-c1nccn1CC1CCN(C(C)C)CC1 | 3 | -1
